Biofilm kill mix = mixtures killing C. albicans biofilm; C. albicans biofilm persisters + clotrimazole, fluorescence viability; primary screen in compound mixtures of four per well; inhibition, % at 7.6 µM; hit rate 0.02% among 120,000; AID 1242;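 active = inhibition above 30.3% in the primary screen of four-compound pools, then above 30% when the compound was retested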;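 also: compounds exposed to preformed 24 h biofilms for 48 h; the number belongs to the whole pool; some results filed as inactive read as strong as hits; inactives centre near 12; 0% = biofilm with clotrimazole alone and 100% = kill control; retested singly at about 60 µM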
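Assay system: C. albicans biofilms / Medium: RPMI/MOPS medium, pH 7.0 / Schedule: biofilm formation 24 h, compound exposure 48 h, 37 °C / Measured by: Alamar Blue fluorescence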
Starred values were filed as active, the others as inactive.

SMILES	Biofilm kill mix
CCN1C/C(=C/c2cccc([N+](=O)[O-])c2)C(=O)/C(=C/c2cccc([N+](=O)[O-])c2)C1	16
CC(C)[N+](C)(C)CC(O)CN(c1ccccc1)c1ccccc1 (stereo unspecified)	7
N/C(=N\OC(=O)/C=C/c1ccccc1)c1ccc(Cl)cc1	9
CCOc1ccccc1CNC(=O)c1c([N+](=O)[O-])c(C)nn1C	7
COc1ccc(N2CCN(C(=S)Nc3ccc(C)cc3)CC2)cc1	24
CC(=O)Nc1ncc(Cc2cccc(Cl)c2)s1	10
O=C(/C=C/c1ccccc1)Nc1nnc(-c2ccco2)o1	9
CCOC(=O)c1cnn(CCOC(=O)c2ccc(OC)cc2)c1NC(=O)c1ccc(OC)cc1	-3
O=C(Nc1cc(S(=O)(=O)N2CCCCC2)ccc1N1CCOCC1)c1cc(=O)[nH]c2ccccc12	11
CC1CCC(C(C)C)C(=O)/C1=C/c1ccc(N)cc1 (stereo unspecified)	20
O=C(CSc1ccc(-c2ccccn2)nn1)N1CCc2ccccc21	11
Cc1cccc2sc(NNC(=O)C3=COCCO3)nc12	15
O=C(CSc1nc2ccccc2s1)NC1CCCC1	20
CCc1c(C)sc(NC(=S)NC(C)C2CCCO2)c1C(=O)OC (stereo unspecified)	9
CCCCOc1ccc(C(C)NC(=O)CCS(=O)(=O)Cc2ccccc2F)cc1 (stereo unspecified)	14
COc1ccc(N=Cc2c(O)n(-c3cccc(C)n3)c(=O)c3ccccc23)cc1	19
COCCNC(=O)Cn1c(=O)n(CCCCCC(=O)Nc2ccccc2)c(=O)c2sccc21	10
Cc1ccc(NC(=O)Nc2cccnc2)cc1NC(=O)Nc1cccnc1	21
COc1ccccc1C/C(N)=N/OC(=O)c1ccc2c(c1)OCO2	23
COc1ccccc1N1CCN(CC(O)COCCOc2ccc(Br)cc2)CC1 (stereo unspecified)	15
O=C(CN1CCCCCC1)Nc1ccc(Oc2ccccc2)cc1	8
CCc1ccc(C2CC(=O)Nc3c2c(=O)nc2c(C)cccn32)cc1 (stereo unspecified)	22
COc1ccc(S(=O)(=O)N2CCCCC2)cc1NC(=O)c1cc(C)on1	14
Cc1nnc(SCC(=O)Nc2ccc3c(c2)OCCO3)s1	14
O=C(Nc1ccccc1)Nc1ccc(Oc2cccnc2)nc1	18
CCOC(=O)/C(=C/c1cn(C)c2ccccc12)NC(=O)c1ccccc1	1
Cc1ccc2cc(CCNC(=O)c3ccco3)c(=O)[nH]c2c1	1
CC/C(=C\c1oc2cc3ccccc3cc2[n+]1CC)Nc1ccccc1	6
COc1cc(C(C)=O)ccc1COc1ccc(C(=O)OC(C)C(=O)NC(N)=O)cc1OC (stereo unspecified)	1
CN=C1SC(CC(=O)Nc2ccccc2F)C(=O)N1/N=C/c1ccc(O)c(OC)c1 (stereo unspecified)	14
C#CCSc1nc(N)c2c(n1)OC(N)=C(C#N)C2c1cccnc1 (stereo unspecified)	15
N/C(=N\OC(=O)/C=C/c1ccccc1Cl)c1cccnc1	10
Cc1nn(-c2ccccc2)c(N)c1N=Nc1ccc(Cl)cc1	8
CCCn1c(=N)c(S(=O)(=O)c2ccccc2)cc2c(=O)n3ccccc3nc21	14
COC(=O)CC1(C(=O)OC)Oc2ccc(Br)cc2C(=O)N1c1cccc(Cl)c1Cl (stereo unspecified)	17
CCOC(=O)c1cn(CC2CC2)c2cc(F)c(F)cc2c1=O	3
Clc1cccc(Cl)c1COc1ccccc1CNn1cnnc1	16
CCOCCCNS(=O)(=O)c1ccc(NC(=O)C2CC(=O)N(c3ccc(C)cc3)C2)cc1 (stereo unspecified)	18
COc1ccc(NC(=O)c2cccc(NC(=O)C(C)C)c2)c([N+](=O)[O-])c1	9
CCOC(=O)c1cnn(-c2ccc(F)cc2)c1N	12
CCC1=NN2C(=N)/C(=C\c3cccn3-c3cccc(Cl)c3)C(=O)N=C2S1	15
O=C(CN(c1ccccc1)S(=O)(=O)c1ccccc1)N/N=C/c1ccco1	9
O=C(NCc1ccco1)C1Cc2ccccc2CN1C(=O)c1ccco1 (stereo unspecified)	22
CCc1ccc2[nH]c(=O)c(CN(CCN(C)C)C(=S)NCc3ccco3)cc2c1	7
NC(N)=N/N=C/c1ccc(OS(=O)(=O)c2ccccc2)cc1	14
Cc1ccc(CN2CCN(Cc3nc4ccccc4nc3C)CC2CCO)cc1 (stereo unspecified)	22
Clc1ccc(-c2nnc3sc(Cc4cccs4)nn23)cc1	9
O=C(O)CCCN1C(=O)c2ccc(C(=O)c3cccc([N+](=O)[O-])c3)cc2C1=O	12
O=c1cc(-c2ccc([N+](=O)[O-])cc2)nc2cc(-c3ccc(F)cc3)[nH]n12	14
O=C(c1cccc(NS(=O)(=O)c2cccc([N+](=O)[O-])c2)c1)N1CCOCC1	14
(more compounds)
SMILES	Biofilm kill mix
CCOc1ccccc1N(C(=O)c1ccccc1Cl)C1=NC(C)(C)CS1	15
CCOc1nc(CC(C)C)c2c(c1C#N)CC(C)(C)OC2	24
CC1=C(C(=O)Nc2nc3ccccc3s2)C(c2ccco2)C(C#N)=C(SCC(=O)NC2CCCCC2)N1 (stereo unspecified)	1
CCOc1ccc(S(=O)(=O)N(CC(=O)NC2CCCCC2C)Cc2ccco2)cc1 (stereo unspecified)	12
Cc1cc(C)cc(C(=O)OCC(=O)NCc2cccs2)c1	-7
COc1ccc(N(C)S(=O)(=O)c2cccc(C(=O)NCC3CCCCC3)c2)cc1	13
CC(=O)N1CCC[C@H]1C(=O)O	11
COC(=O)c1ccc(CSc2nnc(-c3c[nH]c4ccccc34)n2-c2ccccc2)cc1	12
C=CCn1c(SCC(=O)NC(=O)c2cccc([N+](=O)[O-])c2)nnc1-c1ccccc1	4
C=CCNC(=O)c1ccc(C2SCC(=O)N2Cc2ccco2)cc1 (stereo unspecified)	9
Cn1c(=O)c([N+](=O)[O-])c(NC2CCS(=O)(=O)C2)c2ccccc21 (stereo unspecified)	18
CCOC(=O)CCC(NC(=O)CCC(=O)NC(CCC(=O)OCC)C(=O)OCC)C(=O)OCC (stereo unspecified)	16
O=C(O)CSc1nc2sc3c(c2c(=O)n1-c1ccccc1)CCC3	17
Cc1ccc(NC(=O)c2cc([N+](=O)[O-])ccc2N2CCCC2)cc1	7
O=C(/C(=C/c1ccccc1)n1cncn1)c1ccc(Cl)cc1Cl	1
CCN1C(=O)/C(=C/c2ccc(N3CCCC3)cc2)NC1=S	-3
COC(=O)c1cccc2nc3c(C(C)O)cccc3nc12 (stereo unspecified)	-2
Cc1ccc(C(C(=O)NC2CCCC2)N(C(=O)CNC(=O)c2cccs2)c2cccnc2)o1 (stereo unspecified)	9
CCOC(=O)c1c(C)sc2c1N(C(=O)CN(CC)CC)c1ccccc1S2	9
Clc1ccc(N=c2ssnc2Cl)nc1	1
COc1cc(C(=O)Nc2nc(-c3ccc(F)cc3)cs2)ccc1OCC(=O)N1CCOCC1	15
O=C(C[n+]1ccc(CCSc2ccc(F)cc2)cc1)c1ccccc1	5
CN1CCN(c2ccc(CNS(=O)(=O)c3cccc(F)c3)cc2)CC1	23
COc1ccc([N+](=O)[O-])cc1N(CC1CO1)S(=O)(=O)c1ccc(C)cc1 (stereo unspecified)	4
CC1(C)CCCN(C(=O)c2ccc3c(c2NCCO)C(=O)c2ccccc2C3=O)C1	13
CC(=O)Nc1nc2ccccc2n1Cc1ccccc1Cl	22
C=CCc1cccc(/C=N/NC(=O)CNc2cccc3ccccc23)c1O	12
COc1ccc(Nc2nc(C(F)(F)F)nc(C)c2C#N)cc1	-6
Cc1ccc(S(=O)(=O)N2CCN(C(=O)CSc3nc(N)cc(=O)[nH]3)CC2)c(C)c1	13
CCOC(=O)c1c(-c2ccc(F)cc2)csc1NC(=O)C1CCCO1 (stereo unspecified)	4
O=C(Nc1nc(-c2cccc3ccccc23)cs1)c1cnccn1	14
C=CCSc1nc2ccccc2c(=O)n1C1CCOC(C)(C)C1 (stereo unspecified)	6
Cc1cc(C(=O)CCl)c(C)n1Cc1ccco1	2
Cc1ccc(N2C(=O)[C@@H]3[C@H](C2=O)[C@H]2C=C(C(=O)c4ccccc4)C=CN2[C@@H]3C(=O)c2ccc(Cl)cc2)cc1	10
S=c1[nH]c(-c2ccccc2)cn1/N=C/c1ccc(Br)cc1	13
O=C(NCc1ccco1)Nc1ccc(OC(F)(F)F)cc1	21
COC(=O)c1c(C)nc(C)c(C(=O)OC)c1-c1ccsc1	16
Cc1cccn2cc(-c3cc4ccccc4oc3=O)nc12	10
O=C(Cn1nnc(-c2ccccc2)n1)N/N=C/c1cc([N+](=O)[O-])c(Cl)cc1Cl	16
O=C(O)CCC(=O)NNC(=O)c1cccs1	7
C[n+]1ccccc1C1CCCC/C1=N\Nc1ccc([N+](=O)[O-])cc1[N+](=O)[O-] (stereo unspecified)	6
COc1ccc(-c2cc(C(F)(F)F)nc(S(=O)(=O)CCCC(=O)Nc3cccnc3Cl)n2)cc1OC	23
NC(=O)NCC(=O)N1CCC(C(O)(c2ccccc2)c2ccccc2)CC1	31
CCCCNC(=O)CSc1nc2ccc(NC(=O)CSc3nnc(N)s3)cc2s1	13
OCC1(CCc2ccccc2)CCN(Cc2cccn2-c2cccnc2)CC1	2
Cc1ccc(S(=O)(=O)N(C)CCCC(=O)Nc2cc(C)ccc2C)cc1	13
Cc1ccc(SCCN2CCN(CC(C)C)CCC2=O)cc1	14
COC(=O)c1cc(NC(=S)NCc2ccc(Cl)cc2)cc(C(=O)OC)c1	4
O=C(NC1C/C(=N/O)c2cc3c(cc21)OCO3)C(F)(F)F (stereo unspecified)	13
Cn1cc(CN2CCC(N3CCNC(=O)CC3)CC2)c(-c2ccccc2F)n1	8

Brought forward from above: 4 entries, followed by the next part.
SMILES	Biofilm kill mix
Cc1ccc(SCCN2CCN(CC(C)C)CCC2=O)cc1	14
COC(=O)c1cc(NC(=S)NCc2ccc(Cl)cc2)cc(C(=O)OC)c1	4
O=C(NC1C/C(=N/O)c2cc3c(cc21)OCO3)C(F)(F)F (stereo unspecified)	13
Cn1cc(CN2CCC(N3CCNC(=O)CC3)CC2)c(-c2ccccc2F)n1	8
CC(C)c1onc(C(=O)NCc2ccccc2)c1[N+](=O)[O-]	9
COCCNC(=O)CSc1nc2nn(-c3ccccc3)c(=O)c-2c2n1CCCCC2	8
CC(CCc1ccccc1)NC(=S)NC1CCCCC1 (stereo unspecified)	3
Cn1cc(C=C2C(=O)CC(C)(C)CC2=O)c2ccccc21	21
O=C(c1ccc(-c2ccccc2)cc1)C1CCCN(Cc2ccncc2)C1 (stereo unspecified)	18
Cc1nc(N2CCc3ccccc3C2)[nH]c(=O)c1Cc1ccccc1	8
CCOc1ccc(-c2nnn(CC(=O)N3CCCC(C)C3)n2)cc1 (stereo unspecified)	9
COc1ccc2cc(C(=O)N/N=C/c3sc4ccccc4c3O)ccc2c1	24
COc1ccc2c(C=O)c[nH]c2c1	10
O=C(Nc1cccnc1)c1cccc([N+](=O)[O-])c1	20
COc1cccc(-c2nc(-c3cccs3)no2)c1	21
O=Cc1cn(CC(=O)N2CCc3ccccc32)c2ccccc12	24
O=C(Cc1ccccc1)NC1c2ccccc2-c2ccccc21	13
COC(=O)/C(=N/Nc1ccccc1)N1CCCc2ccccc21	16
Cc1cc(C)c2c(C)c(C(=O)NCc3ccc(S(N)(=O)=O)cc3)oc2c1	7
Cc1nc2cc(-c3ccccc3)ccc2o1	7
CN1C(=S)N(c2ccccc2)C(=O)/C1=C/c1ccco1	5
CN(C(=O)COC(=O)c1cc(-c2ccc(Cl)s2)nc2ccccc12)C1CCS(=O)(=O)C1 (stereo unspecified)	7
O=S(=O)(/N=C(/Nc1ccc(Cl)c(S(=O)(=O)Nc2ccccc2Cl)c1)c1ccc(F)cc1)c1ccccc1	19
CCCc1cc(=O)[nH]c(SCC(=O)NCCC2=CCCCC2)n1	15
COc1ccc(C(=O)/C=C/NCc2ccc(F)cc2)cc1OC	10
Fc1ccc(Cn2cccc2C2=NC(c3ccccc3)CO2)cc1 (stereo unspecified)	10
C#CCOCCOCCOCCNc1nc(N2CCN(C(=O)Cn3cc(CCO)nn3)CC2)nc(N2CCN(C(=O)[C@H]([C@@H](C)O)n3cc(CCCCN)nn3)CC2)n1	13
Cc1cc(C)nc(-n2ncc3c2CCCC3=O)n1	14
Cc1nnc(SCC(=O)NC2CCCCC2)s1	-5
O=C(Nc1cnn(Cc2ccc(F)cc2)c1)c1cnn2c(C(F)F)cc(-c3ccccc3)nc12	14
O=C(COC(=O)c1ccc[nH]c1=O)NC1CCCCCCC1	10
COc1ccc(-c2c(C(F)(F)F)nn(C)c2NC(=O)c2ccco2)cc1	11
C/C(=N\NC(=O)CNc1cccc2ccccc12)c1ccccc1	16
COc1ccc(/C=C2\N=C3CCCCCN3C2=O)cc1	12
CC(C)(C)Cc1nnc(NS(=O)(=O)c2ccccc2)s1	24
Cc1cc2ncn(C(=O)N3CCCC3)c2cc1C	11

Filtered by structure, the entries above with two or more sulfur atoms.
SMILES	Biofilm kill mix
O=C(CSc1nc2ccccc2s1)NC1CCCC1	20
CCc1c(C)sc(NC(=S)NC(C)C2CCCO2)c1C(=O)OC (stereo unspecified)	9
Cc1nnc(SCC(=O)Nc2ccc3c(c2)OCCO3)s1	14
Clc1ccc(-c2nnc3sc(Cc4cccs4)nn23)cc1	9
CC1=C(C(=O)Nc2nc3ccccc3s2)C(c2ccco2)C(C#N)=C(SCC(=O)NC2CCCCC2)N1 (stereo unspecified)	1
O=C(O)CSc1nc2sc3c(c2c(=O)n1-c1ccccc1)CCC3	17
CCOC(=O)c1c(C)sc2c1N(C(=O)CN(CC)CC)c1ccccc1S2	9
Clc1ccc(N=c2ssnc2Cl)nc1	1
Cc1ccc(S(=O)(=O)N2CCN(C(=O)CSc3nc(N)cc(=O)[nH]3)CC2)c(C)c1	13
CCCCNC(=O)CSc1nc2ccc(NC(=O)CSc3nnc(N)s3)cc2s1	13
CN(C(=O)COC(=O)c1cc(-c2ccc(Cl)s2)nc2ccccc12)C1CCS(=O)(=O)C1 (stereo unspecified)	7
O=S(=O)(/N=C(/Nc1ccc(Cl)c(S(=O)(=O)Nc2ccccc2Cl)c1)c1ccc(F)cc1)c1ccccc1	19
Cc1nnc(SCC(=O)NC2CCCCC2)s1	-5
CC(C)(C)Cc1nnc(NS(=O)(=O)c2ccccc2)s1	24

A portion of the library; the hit share may differ from the screen's.
